# From PubChem
# AID504770: E. coli YBA685 growth inhibition, screen for V. cholerae RctB inhibitors | E. coli YBA685 rctB-dependent plasmid, OD600 growth, 3 h; active compounds read low | z-score (no concentration beside the values) | hit rate 0.27% among 130,000;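 active = z-score under -2 on both plates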;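 also: wells of about 30 µL received 100 nL stock; score is relative to mean and SD of the test wells; the first replicate is given; strong numbers were not always called active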
# CapD inh: blocks the Bacillus anthracis CapD enzyme; purified CapD enzyme, fluorescence intensity read-out; active compounds read low; some hits fall short of the stated cut; hit rate 0.23% among 140,000; AID 492967; z-score (no concentration beside the values);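 active = z-score under -4 in either of two replicates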;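 also: stock transfer was 100 nL into about 40 µL; score is relative to mean and spread of the plate; one replicate is shown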
# Active calls of the source: *; nt = no result given.
# Each structure is followed by: AID504770, CapD inh
- O=C1c2ccccc2C(=O)C1(Cc1ccc(Cl)cc1)c1ccc(Cl)cc1
  -0.4, 1.6
- O=C1Nc2ccccc2OC1CC(=O)N1CCN(c2ccccc2)CC1 (centres undefined)
  -1, -0.74
- O=C(NCc1cccnc1)c1cc2cnccc2nc1C(F)(F)F
  nt, -0.47
- O=C(NC1CS(=O)(=O)CC1NCc1ccco1)c1ccccc1 (centres undefined)
  -0.5, 6.5
- CCCSc1nnc(NC(=O)C(CC)CC)s1
  -0.1, nt
- Cc1nnc(N(C)C(=O)CNC(=O)c2ccccc2)s1
  -0.05, nt
- O=C(O)c1cccc(COc2cccc(Cl)c2)c1
  -0.65, 0.23
- Cc1cccc(N2CCN(CCNC(=O)CCc3nnc4n(CCCOC(C)C)c(=O)c5ccccc5n34)CC2)c1C
  -0.3, -0.53
- COc1ccc([N+](=O)[O-])cc1/C=C1\C(=O)NC(=O)N(c2ccc(Cl)cc2)C1=O
  nt, -0.64
- O=c1c2c(nc3cc(-c4cccc(Cl)c4)[nH]n13)CCCC2
  0.25, nt
- COC(=O)Oc1ccc2c(=O)c(Oc3cccc(C)c3)coc2c1
  -0.55, -1.1
- O=C(O)c1cc(NC(=O)c2cccc(N3C(=O)c4cccc5c([N+](=O)[O-])ccc(c45)C3=O)c2)cc(C(=O)O)c1
  nt, 0.22
- CC(C)Cc1ccc(/C=C/C(=O)N2CCN(C/C=C/c3ccccc3)CC2)cc1
  2.3, -0.5
- CC1CC(C)CN(C(=O)c2ccc(N3CC4CC(C3)c3cccc(=O)n3C4)c(NC(=O)Cc3c(F)cccc3Cl)c2)C1 (centres undefined)
  nt, -0.78
- Cn1c(=NC(=O)c2nc3ccccc3s2)sc2cc(Cl)ccc21
  -0.45, -0.17
- CC1=CC(C)(C)N(C(=O)CN2C(=O)c3ccccc3C2=O)c2ccccc21
  -0.25, 0.98
- O=C(CCNC(=O)c1ccccc1Cl)NC1=NCCS1
  -0.3, nt
- CSc1nnnn1-c1cccc2ccccc12
  0.15, 0.27
- COC(=O)c1ccc2c(=O)n(CCN3CCOCC3)c(SCC(=O)NCCc3ccc(OC)c(OC)c3)nc2c1
  nt, -0.08
- CCC(=O)Nc1ccc(C(=O)COc2ncnc3ccccc23)cc1
  0.05, nt
- CCOC(=O)c1c(NC(=O)c2ccc(C)cc2)sc(C(=O)Nc2ccccc2C(F)(F)F)c1C
  nt, 0.74
- NC(=O)COC(=O)Cc1c(Cl)cccc1Cl
  1.5, -0.82
- CN(CCO)C(=O)c1cccc2c1-c1ccccc1C2=O
  1, -0.46
- Cc1nc2ccc(N=Cc3ccc(Br)cc3)cc2s1
  -2.4*, -0.34
- CC(C)CCNc1nnnc2c1sc1nc(N3CCOCC3)c3c(c12)CCCC3
  -1.8, -0.52
- Cc1nn(-c2ccccc2)c2nc(-c3ccccc3)ccc12
  1.1, nt
- CC(C)CCCNc1nc(N2CCOCC2)nc(N2CCOCC2)n1
  0, 5.9
- CN(C)c1ncc2c(n1)CC(c1ccc(C(C)(C)C)cc1)CC2=O (centres undefined)
  2.4, 0.075
- CCN(CC)c1ccc(Nc2nc(-c3cccs3)cs2)cc1
  2.2, -1.7
- O=C(O)CSc1n[nH]c(-c2cccs2)n1
  1.9, 0.085
- Fc1ccc(CSc2nc(-c3ccccc3)c(-c3ccccc3)[nH]2)cc1
  nt, 23
- CCOC(=O)c1c(NC(=O)c2onc(C)c2Cl)sc(C)c1C
  -0.75, -0.14
- O=S(=O)(Cc1ccccc1)NC(c1ccccc1)c1nnc(-c2ccccc2)o1 (centres undefined)
  0.8, 0.14
- CNC(=O)c1ccccc1-c1nc(-c2ccc(Cl)cc2)no1
  -0.4, -0.59
- NC(=O)CCN1CCCC1C(N)=O (centres undefined)
  0.15, nt
- COc1cc(/C=c2/sc3nc4cc(C)c(C)cc4n3c2=O)cc(Br)c1OCc1ccccc1
  nt, 0.07
- Cn1c(O)c(N=O)c2ccccc21
  1.3, -0.42
- O=C1NC(=Nc2ccccc2)/C(=C/c2cccs2)S1
  0.1, nt
- CC1CC(C)CN(S(=O)(=O)c2ccc(C(=O)NCCCn3ccnc3)cc2)C1 (centres undefined)
  -0.45, nt
- CCn1c(C)cc(C(=O)O)c1C
  0.8, nt
- CCc1cc(C(=O)O)on1
  -0.65, nt
- O=C(/C=C/c1ccccc1)OCC1CCCN2CCCCC12 (centres undefined)
  0.2, -0.49
- CCSc1nnc(C2CCCN(S(C)(=O)=O)C2)n1C(C)C (centres undefined)
  -1.5, nt
- CCN(CC)C1=NC(C(F)(F)F)(C(F)(F)F)N=C(c2cccc(Cl)c2)O1
  nt, 1.3
- COC(=O)C1Cc2c([nH]c3ccccc23)C(C(C)C)N1 (centres undefined)
  0.85, 5.1
- Cc1onc(-c2ccccc2Cl)c1C(=O)Nc1ccccc1CC1c2ccccc2CCN1C (centres undefined)
  1.4, -0.54
- O=S(=O)(NC1CCN(Cc2ccccc2OCc2ccccc2)C1)c1cccc(F)c1 (centres undefined)
  nt, -0.81
- c1ccc2c(c1)[nH]c1cncnc12
  -0.2, 136
- CC1=C(C#N)c2nc(N)c(C#N)c(C)c2/C1=C\c1ccc(-c2cccc([N+](=O)[O-])c2)o1
  nt, -0.32
- Cc1cc(C(=O)N(C)CC(=O)Nc2ccccc2C(F)(F)F)c(C)o1
  0.3, nt
- CCOC(=O)/C(N=Nc1ccc(OC)cc1)=C(\C)O
  nt, -2.1
- CCOc1ccccc1NC(=O)c1c(NC(=O)c2ccc(C)cc2)sc2c1CCCCC2
  nt, -0.075
- C=CCN1C(=O)NC(=O)C(CCc2ccccn2)(CCc2ccccn2)C1=O
  1.8, -0.34
- N#Cc1c(SCc2cccc(Cl)c2)nc(-c2ccccc2)c2c1CCC2
  nt, 3.4
- CC1CCCC(C)N1C(=O)CCC(=O)O (centres undefined)
  1.8, -0.29
- CC(C)(C)OC(=O)N/N=C\c1cccc2ccccc12
  nt, -1.3
- BrCCc1nc(CCBr)n(Cc2ccccc2)n1
  -0.35, 0.26
- Cc1cc(C(=O)COc2ncnc3sccc23)c(C)n1C
  0.2, nt
- CC(CCc1ccccc1)NCc1ccco1 (centres undefined)
  -0.45, 0.46
- COc1ccc(C)cc1NC(=O)NC1CCCCC1C (centres undefined)
  -0.4, 0.86

# 4 entries picked at random from those above:
# Each structure is followed by: AID504770, CapD inh
- COC(=O)C1Cc2c([nH]c3ccccc23)C(C(C)C)N1 (centres undefined)
  0.85, 5.1
- c1ccc2c(c1)[nH]c1cncnc12
  -0.2, 136
- BrCCc1nc(CCBr)n(Cc2ccccc2)n1
  -0.35, 0.26
- CC1=C(C#N)c2nc(N)c(C#N)c(C)c2/C1=C\c1ccc(-c2cccc([N+](=O)[O-])c2)o1
  nt, -0.32

# Single entries from above:
# For AID504770, `O=C1NC(=Nc2ccccc2)/C(=C/c2cccs2)S1` has the entry 0.1
# For AID504770, `COc1ccc(C)cc1NC(=O)NC1CCCCC1C` (centres undefined) has the entry -0.4

# Next part
# Each structure is followed by: AID504770, CapD inh
- CC(C)(C)c1csc(-c2ccc(-c3ccccn3)s2)n1
  1, 112
- COc1ccc(-c2csc(C(=O)NCCN3CCOCC3)c2)cc1
  nt, -0.19
- CCOC(=O)c1cc(-c2cccs2)nc2ccccc12
  -0.65, 41
- Cc1n[nH]c(=O)c(C#N)c1C
  0, nt
- COc1ccc2c(C)c(CC(=O)O)c(=O)oc2c1
  2.2, 89
- CCOC(=O)Cc1c(C)[nH]c(C(=O)OCC)c1CC(=O)OCC
  0.65, -0.015
- COc1cc(SC)ccc1C(=O)Nc1cccc(-c2nncn2C)c1
  1.5, -1.4
- O=C(NCc1ccccn1)OCC(F)(F)F
  -0.55, nt
- COc1ccc(C2CC(c3cccs3)=NN2C(=O)CSc2nnc(CNC(=O)c3ccc([N+](=O)[O-])cc3)n2C)cc1 (centres undefined)
  nt, 4.5
- CC(C)c1ccc(NC(=O)CSc2nc3ccccc3n2S(C)(=O)=O)cc1
  nt, 0.17
- Clc1nc2sccn2c1C=Nc1ccccc1
  1.2, -0.94
- CNC(=O)COC(=O)c1ccccc1C(=O)c1ccccc1
  1.4, nt
- S=C1SCN(Cc2ccccc2)CN1Cc1ccccc1
  -0.45, 0.08
- COC(=O)C1CCN(C(=O)CSc2nnc3n(-c4c(C)cccc4C)c(=O)c4ccccc4n23)CC1
  0.25, nt
- O=C(NC(=S)Nc1nncs1)c1ccccc1
  -1, nt
- CC(C)OC(=O)c1cc2c(ccn2C)n1CC(=O)N(Cc1ccccc1)c1ccccc1
  -0.15, nt
- Cc1ccc(C(O)C(=O)c2ccccc2)o1 (centres undefined)
  -0.4, 72
- Cn1ccsc1=NC(=O)/C=C/c1ccc(S(=O)(=O)N2CCCCCC2)cc1
  0, nt
- O=C(N/N=C/c1cccc(O)c1)C1C(c2ccccc2)C(C(=O)N2CCOCC2)C1c1ccccc1 (centres undefined)
  nt, 5.8
- CCC(CO)NC(=O)c1ccc(N)cc1 (centres undefined)
  2.1, -0.55
- COc1cccc(N=Cc2ccc(O)cc2)c1
  -1.1, -1.2
- Cc1cc(=O)n2[nH]cc(C(=O)O)c2n1
  0, 7.4
- O=C(NCC1CCCO1)c1cc(C(=O)c2ccc(Cl)cc2Cl)c[nH]1 (centres undefined)
  nt, 0.78
- CC1(C)C2CC=C(/C=N/NC(=O)c3ccc(O)cc3)C1C2 (centres undefined)
  0.05, nt
- O=[N+]([O-])c1cccc(S(=O)(=O)Nc2ccc(-c3cn4ccccc4n3)cc2)c1
  nt, -1.4
- CN(C)c1ccc(C(=O)NCc2ccc(S(N)(=O)=O)cc2)cc1
  -0.05, 0.1
- O=C1c2ccccc2C(=O)N1OCCOc1cccc(C(F)(F)F)c1
  nt, 0.05
- CN(C)c1ccc(-c2nc(-c3cccc(I)c3)cc(=O)o2)cc1
  -0.75, -1.2
- COc1ccc(C2CC(=O)C3=C(C2)Nc2ccccc2N(C(=O)CCC(=O)O)C3c2cccs2)cc1OC (centres undefined)
  -0.5, 3.1
- NS(=O)(=O)c1ccc(-c2ccc(C3Nc4ccccc4-c4nc5ccccc5n43)o2)cc1 (centres undefined)
  1.7, 99
- Cc1ccc(SC(=O)c2cc(C)on2)cc1
  0.45, 1.2
- CCOc1ccc(N=C(N)N=C(N)N)cc1
  1.5, -0.77
- CC(C)c1ccc(OCCCN2CCCC2)cc1
  -0.65, 19
- Cc1ccc(-c2nc(C#N)c(NC3CC3)o2)cc1
  -0.6, 92
- Cc1c(Cl)cccc1-n1sc2c(c1=S)-c1ccccc1NC2(C)C
  nt, -0.84
- CC(C(=O)N1c2ccccc2C(C)(c2ccccc2)CC1(C)C)N1C(=O)C2CCCCC2C1=O (centres undefined)
  nt, 0.13
- CCNS(=O)(=O)c1ccc(OC)c(C(C)(C)C)c1
  0.6, 0.085
- CCC(Sc1nc2c(c(=O)[nH]1)CCC2)C(=O)NC1CCCCC1 (centres undefined)
  -0.35, -0.16
- CN1CCCC1c1ccc(N)nc1 (centres undefined)
  -0.1, nt
- COc1cc(C#N)ccc1OC(=O)C(CCSC)N1C(=O)c2ccccc2C1=O (centres undefined)
  -0.2, nt
- CNC(=O)c1cccc(S(=O)(=O)N(C)C)c1
  -0.7, -0.13
- COc1cc([N+](=O)[O-])c(Cl)cc1-c1ccc(/C=c2\sc3nc4ccccc4n3c2=O)o1
  nt, 0.29
- CC(C)N(CC(=O)N1c2ccccc2CC1C)Cc1ccccc1 (centres undefined)
  -1.5, nt
- COc1ccc(/C=C/C(=O)C2CC2)cc1CSc1nc2ccccc2[nH]1
  nt, -0.28
- CC(=O)N1CCc2c(sc(NC(=O)/C=C/c3ccccc3)c2C(N)=O)C1
  -0.75, -1.6
- Cc1cccc(Nc2nnc(SCC#N)s2)c1
  0.25, nt
- Cc1ccc(-n2c(SCc3cccc(C(F)(F)F)c3)nnc2-c2ccncc2)cc1
  0.1, 0.48
- CCN(CC)Cc1c(O)ccc2c(=O)c(-c3ccccc3OC)coc12
  -0.55, 78
- Cc1ccccc1CN1CCCN(Cc2ccccc2)S1(=O)=O
  -0.7, 0.6
- CC1(C)CC(=O)C2=C(C1)Nc1[nH]c(=O)[nH]c(=O)c1C2c1cccs1 (centres undefined)
  0.65, -0.53
- CC(=O)Nc1sc(Cc2ccc3c(c2)OCO3)c(C)c1C(N)=O
  -0.45, -0.5
- Cc1nn(C(=O)c2ccccc2)cc1-c1nsc(Nc2ccccc2)n1
  -0.25, 0.91
- O=C1/C(=C\c2ccc(N3CCOCC3)cc2)N2CCC1CC2
  -0.2, nt
- CCN(C(=O)CC(C)C)c1nnc(-c2ccccc2C)s1
  0.05, nt
- CCn1c2ccccc2c2cc(/C=C(\C#N)S(=O)(=O)c3ccccc3)ccc21
  -0.85, 2.6
- CS(=O)(=O)Nc1cccc(C(=O)O)c1
  -1.4, nt
- COc1ccc(-n2nc3c(c2NC(=O)c2ccco2)CSC3)cc1
  0.25, 0.075
- CC(=O)Nc1c(Cl)n(C(C)=O)c2ccccc12
  -0.65, 1
- O=C(O)Sc1nnc(CCCO)n1-c1ccccc1
  -0.35, 0.15
- N#Cc1cnn(-c2ccccc2)c1C(F)(F)F
  -0.65, -0.05

# Further structures.
# Each structure is followed by: AID504770, CapD inh
- Cc1c(C(=O)Nc2ccc(F)cc2Cl)sc2ncn(CC(=O)N3CCN(c4ccccn4)CC3)c(=O)c12
  nt, 0.42
- FC(F)(F)c1ccc(CSc2ncnc3c2oc2ccccc23)cc1
  0.2, nt
- O=c1[nH]c(=O)n(-c2ccccc2)[nH]1
  -0.55, nt
- Cc1oc2c(c1C(=O)NCc1ccccn1)C(=O)c1ccccc1C2=O
  -0.4, 0.41
- Cc1nc(C)c(C(=O)NCCc2nc3ccccc3[nH]2)s1
  0.05, -0.12
- Cc1nc(-c2ccncc2)ncc1C(=O)Nc1ncc(C(F)(F)F)cc1Cl
  nt, -0.24
- Cc1nc(-c2ccc(NS(C)(=O)=O)cc2)cs1
  -0.05, 0.18

# Reprinted from above (2 entries):
# Each structure is followed by: AID504770, CapD inh
- Cc1nc(-c2ccncc2)ncc1C(=O)Nc1ncc(C(F)(F)F)cc1Cl
  nt, -0.24
- Cc1nc(-c2ccc(NS(C)(=O)=O)cc2)cs1
  -0.05, 0.18
